Vaccinia inh: blocks a specific stage of Vaccinia orthopoxvirus infection, primary screen, cell-based, single point | Vaccinia-infected cells, mCherry/Venus stage reporter fluorescence; active compounds read low; some inactives read as strong as hits | activity change (mCherry), % (test concentration not listed) | AID 1053133, 2014 | actives 0.01% (n = 89,000);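 active means mCherry past -33% and 40 or more points under the early reporter, replicates agreeing; inconclusive means past -33% without that gap or agreement; tested in A549 cells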;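 further: scaled between vehicle wells and reference inhibitor wells; 23 nL library stock went into each well; one replicate is shown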
Vaccinia inh Venus: also measured in Vaccinia inh; calls as there; activity change (Venus), %; measured here: Venus reporter, other viral stage;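 negative = less Venus signal; first of two replicates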
* hit, by the source's call; ? = inconclusive; . = not tested or not shown. A portion of the library, so the mix of outcomes need not match the whole.

Value order: Vaccinia inh	Vaccinia inh Venus
Cc1ccc(S(=O)(=O)Nc2ccc3c(c2)C(=O)N([C@H](C)CO)C[C@H](C)[C@@H](CN(C)C(=O)NC(C)C)OCCCC[C@@H](C)O3)cc1
 : 8	3
CO[C@H]1CN(C)C(=O)c2cc(NC(=O)c3ccccc3F)ccc2OC[C@@H](C)N(C(=O)c2ccccc2F)C[C@H]1C
 : -6	-1
C[C@H]1CN([C@@H](C)CO)C(=O)Cc2cc(NS(=O)(=O)c3ccc(Cl)cc3)ccc2O[C@@H]1CN(C)Cc1ccc(C(=O)Nc2ccccc2N)cc1
 : 22	12
C[C@@H]1CN([C@@H](C)CO)C(=O)c2cccc(NS(=O)(=O)c3cn(C)cn3)c2O[C@@H]1CN(C)Cc1ccccc1
 : 4	6
OC[C@@H]1[C@H](c2ccc(-c3ccccc3)cc2)[C@H]2CN(CCC(F)(F)F)CCCCN12
 : ?	.
COc1ccccc1CNC(=O)C[C@@H]1CC[C@@H]2[C@H](COC[C@H](O)CN2C(=O)Nc2ccc(Cl)cc2)O1
 : -9	3
CO[C@@H]1CN(C)C(=O)c2ccc(NC(=O)NC(C)C)cc2OC[C@H](C)N(Cc2ccccn2)C[C@@H]1C
 : 9	9
C[C@@H]1CN([C@H](C)CO)C(=O)c2cc(NC(=O)CCCCCC(=O)Nc3ccccc3N)ccc2O[C@@H]1CN(C)Cc1ccc(Oc2ccccc2)cc1
 : ?	.
O=C(c1ccccc1)N1C[C@H]2[C@@H](c3ccccc31)[C@H](CO)N2C(=O)CN1CCOCC1
 : 4	-4
CCC(=O)Nc1ccc2c(c1)C(=O)N(C)[C@H]1CC[C@H](CC(=O)NCCc3ccccc3)O[C@H]1CO2
 : 8	9
C[C@@H]1CN([C@@H](C)CO)C(=O)Cc2cc(NC(=O)Cc3cn(C)c4ccccc34)ccc2O[C@@H]1CN(C)S(=O)(=O)c1cn(C)cn1
 : 7	7
Cc1ccc(S(=O)(=O)N(C)C[C@@H]2Oc3ccc(NS(=O)(=O)c4ccccc4)cc3C(=O)N([C@H](C)CO)C[C@@H]2C)cc1
 : 5	-1
CNC[C@H]1Oc2c(NC(=O)NC3CCCCC3)cccc2C(=O)N([C@H](C)CO)C[C@H]1C
 : 6	12
C[C@H](CO)N1C[C@H](C)[C@H](CN(C)Cc2ccccn2)Oc2ncc(-c3ccccc3)cc2C1=O
 : 7	7
CC(C)NC(=O)N[C@@H]1CC[C@@H](CC(=O)NCCN2CCCC2)O[C@@H]1CO
 : 20	15
CN(C)CC(=O)N1[C@@H]2c3ccc(-c4ccccc4)c(=O)n3C[C@H]1[C@H](CO)[C@H]2C(=O)N1CCN(C)CC1
 : -9	-5
COc1ccc2c3c(n(C)c2c1)[C@@H](CO)N(C(=O)CN1CCOCC1)CC31CN(Cc2ccncc2)C1
 : 10	6
O=C(C1=C[C@H](c2ccc3c(c2)OCO3)C[C@H](OCCCCO)O1)N1CCN(Cc2ccccc2)CC1
 : 1	-1
C[C@@H]1CN([C@H](C)CO)C(=O)c2cc(C#CC3(O)CCCC3)cnc2O[C@H]1CN(C)Cc1cncnc1
 : 16	4
CO[C@@H]1CN(C)C(=O)c2cc(NS(=O)(=O)c3ccc(C)cc3)ccc2OC[C@@H](C)N(C)C[C@H]1C
 : -7	-4
C[C@@H]1CCCCO[C@H](CN(C)CC2CCCCC2)[C@H](C)CN([C@@H](C)CO)C(=O)c2cc(NC(=O)Nc3ccc(F)cc3)ccc2O1
 : ?	.
O=C(C[C@@H]1C=C[C@H](NC(=O)Nc2cc(F)ccc2F)[C@H](CO)O1)NCCCN1CCOCC1
 : 7	2
CO[C@@H]1CN(C)C(=O)c2ccc(NC(=O)Nc3c(C)noc3C)cc2OC[C@H](C)N(C)C[C@H]1C
 : 5	-5
CN(C)c1ccc2c(c1)[C@@H]1C[C@@H](CC(=O)N3CCCCC3)O[C@H](CO)[C@@H]1O2
 : 7	14
Cc1noc(C)c1NC(=O)Nc1ccc2c(c1)C(=O)N(C)[C@@H]1CC[C@@H](CC(=O)NCc3ccc(Cl)cc3)O[C@@H]1CO2
 : 9	11
C[C@@H]1CCCCO[C@@H](CN(C)Cc2ccncc2)[C@@H](C)CN([C@H](C)CO)C(=O)c2cc(NS(=O)(=O)c3ccc(F)cc3)ccc2O1
 : 0	-4
CCCN1C[C@H](C)[C@@H](OC)CN(C)C(=O)c2ccc(NC(=O)c3cccc(F)c3)cc2OC[C@H]1C
 : -12	-13
Cc1noc(C)c1S(=O)(=O)N(C)C[C@H]1OCCCC[C@@H](C)Oc2ccc(NC(=O)c3ccccc3)cc2C(=O)N([C@H](C)CO)C[C@@H]1C
 : -4	0
C[C@@H]1CN([C@H](C)CO)C(=O)c2cc(NC(=O)Cc3ccccc3)ccc2O[C@@H](C)CCCCO[C@@H]1CN(C)CC1CCCCC1
 : ?	.
COc1ccc2c3c([nH]c2c1)[C@@H](CO)N(Cc1nccs1)CC31CN(Cc2nccs2)C1
 : 17	25
C[C@H]1CN([C@@H](C)CO)S(=O)(=O)c2ccc(C#CCC3CCCC3)cc2O[C@H]1CN(C)C
 : ?	.
COc1cccc(-c2ccc3c(c2)[C@H]2[C@H](CCN2S(=O)(=O)c2ccc(F)cc2)[C@@H](CO)N3C)c1
 : ?	.
O=C(Cc1ccccn1)NCC[C@@H]1CC[C@@H](NC(=O)CN2CCOCC2)[C@@H](CO)O1
 : 7	12
CN1C[C@H]2[C@@H](c3ccccc31)[C@H](CO)N2Cc1ccccc1F
 : -1	-6
COc1ccc(S(=O)(=O)Nc2ccc3c(c2)C(=O)N([C@H](C)CO)C[C@@H](C)[C@H](CN(C)C(=O)C2CCCCC2)OCCCC[C@@H](C)O3)cc1
 : ?	.
Cc1noc(C)c1S(=O)(=O)Nc1ccc2c(c1)C(=O)N([C@@H](C)CO)C[C@@H](C)[C@H](CN(C)C(=O)Nc1ccc(C(F)(F)F)cc1)O2
 : -9	-11
O=C(NCC[C@H]1CC[C@@H](NC(=O)C2CCCCC2)[C@H](CO)O1)c1cnccn1
 : 4	0
CCCC#Cc1cnc2c(c1)C(=O)N([C@@H](C)CO)C[C@H](C)[C@H](CN(C)C(=O)c1ccc3c(c1)OCO3)O2
 : 0	-4
CO[C@H]1CN(C)C(=O)c2ccc(NC(=O)C3CC3)cc2OC[C@H](C)N(CC2CCOCC2)C[C@H]1C
 : 21	10
COCC(=O)Nc1ccc2c(c1)OC[C@@H](C)N(C(=O)Cc1ccccn1)C[C@H](C)[C@H](OC)CN(C)C2=O
 : 1	0

As a short view, part of the list above.
Value order: Vaccinia inh	Vaccinia inh Venus
CCCC#Cc1cnc2c(c1)C(=O)N([C@@H](C)CO)C[C@H](C)[C@H](CN(C)C(=O)c1ccc3c(c1)OCO3)O2
 : 0	-4
CO[C@H]1CN(C)C(=O)c2ccc(NC(=O)C3CC3)cc2OC[C@H](C)N(CC2CCOCC2)C[C@H]1C
 : 21	10
COCC(=O)Nc1ccc2c(c1)OC[C@@H](C)N(C(=O)Cc1ccccn1)C[C@H](C)[C@H](OC)CN(C)C2=O
 : 1	0

(further entries)
Value order: Vaccinia inh	Vaccinia inh Venus
CN1C(=O)c2cc(NC(=O)C3CCCCC3)ccc2OC[C@@H]2O[C@@H](CC(=O)NCCc3ccncc3)CC[C@@H]21
 : 7	13
C[C@@H]1CN([C@H](C)CO)C(=O)c2cccc(NC(=O)C3CCOCC3)c2O[C@@H]1CN(C)Cc1ccncc1
 : 24	14
Cc1ccc(S(=O)(=O)Nc2cccc3c2O[C@@H](CN(C)C(=O)Nc2ccc(F)cc2)[C@@H](C)CN([C@@H](C)CO)C3=O)cc1
 : 2	-2
C[C@H](O)C#Cc1ccc([C@H]2[C@H]3CN(C(=O)c4ccc(F)cc4)CCCCN3[C@H]2CO)cc1
 : -17	-24
Cc1noc(C)c1S(=O)(=O)Nc1ccc2c(c1)C(=O)N([C@H](C)CO)C[C@H](C)[C@H](CN(C)C(=O)NC(C)C)OCCCC[C@@H](C)O2
 : 20	14
Cc1ccc(S(=O)(=O)N(C)C[C@@H]2Oc3ccc(NS(C)(=O)=O)cc3C(=O)N([C@H](C)CO)C[C@H]2C)cc1
 : 13	13
O=C(NCCN1CCCCC1)[C@H]1[C@H](CO)[C@H]2Cn3c(cccc3=O)[C@H]2N1C(=O)C1CC1
 : 15	8
CCCNC(=O)N1CC2(C1)[C@H](c1ccccc1)[C@H](CO)N2CC1CCCC1
 : -7	-3
C[C@H](CO)N1C[C@H](C)[C@H](CN(C)C(=O)Nc2ccc(F)cc2)Oc2ccc(NC(=O)Nc3ccc(C(F)(F)F)cc3)cc2CC1=O
 : -26	-8
C[C@@H]1CN([C@@H](C)CO)C(=O)c2cc(NC(=O)Nc3ccc4c(c3)OCO4)ccc2O[C@@H](C)CCCCO[C@@H]1CN(C)S(=O)(=O)c1cccs1
 : 8	6
C[C@@H]1CCCCO[C@@H](CN(C)S(=O)(=O)c2cn(C)cn2)[C@H](C)CN([C@@H](C)CO)C(=O)c2cc(NC(=O)Nc3cccc4ccccc34)ccc2O1
 : 16	8
Cc1noc(C)c1NC(=O)N(C)C[C@H]1Oc2c(NC(=O)NC(C)C)cccc2C(=O)N([C@@H](C)CO)C[C@@H]1C
 : 6	4
CCCNC(=O)N1CC2(C1)[C@H](c1ccccc1)[C@@H](CO)N2Cc1ccccc1
 : 6	-1
CO[C@@H]1CC[C@@H]2CCOc3c(C#N)cccc3C(=O)N(C)C[C@H](C)C(=O)N(C)C[C@@H]1O2
 : 11	11
Cc1ccc(S(=O)(=O)Nc2cccc3c2O[C@H](CN(C)Cc2ccncc2)[C@@H](C)CN([C@@H](C)CO)C3=O)cc1
 : 22	11
CCC(=O)N1[C@@H](CO)[C@@H]2c3ccccc3N(C(=O)Nc3cccc(Cl)c3)C[C@@H]21
 : -1	3
C[C@H]1CN([C@@H](C)CO)C(=O)c2cc(C#CC3CCCCC3)cnc2O[C@@H]1CN(C)C(=O)c1ccncc1
 : 4	-5
CN(C)CC(=O)N1CC2(C1)[C@@H](c1ccccc1)[C@@H](CO)N2S(C)(=O)=O
 : 14	10
C[C@@H]1CN([C@H](C)CO)C(=O)c2ccccc2-c2ccccc2CO[C@@H]1CN(C)C(=O)Nc1ccc2c(c1)OCO2
 : 29	23
CO[C@@H]1CN(C)C(=O)c2cc(NC(=O)Nc3cccc(F)c3)ccc2OC[C@@H](C)N(C(=O)Nc2c(C)noc2C)C[C@H]1C
 : -7	1

Part of the list above in order of SMILES length, smallest number first.
Value order: Vaccinia inh	Vaccinia inh Venus
CCCNC(=O)N1CC2(C1)[C@H](c1ccccc1)[C@H](CO)N2CC1CCCC1
 : -7	-3
CO[C@@H]1CC[C@@H]2CCOc3c(C#N)cccc3C(=O)N(C)C[C@H](C)C(=O)N(C)C[C@@H]1O2
 : 11	11
C[C@H]1CN([C@@H](C)CO)C(=O)c2cc(C#CC3CCCCC3)cnc2O[C@@H]1CN(C)C(=O)c1ccncc1
 : 4	-5
Cc1ccc(S(=O)(=O)Nc2cccc3c2O[C@H](CN(C)Cc2ccncc2)[C@@H](C)CN([C@@H](C)CO)C3=O)cc1
 : 22	11
CO[C@@H]1CN(C)C(=O)c2cc(NC(=O)Nc3cccc(F)c3)ccc2OC[C@@H](C)N(C(=O)Nc2c(C)noc2C)C[C@H]1C
 : -7	1

Next section
Value order: Vaccinia inh	Vaccinia inh Venus
CCC(=O)Nc1ccc2c(c1)C(=O)N(C)[C@H]1CC[C@H](CC(=O)N[C@H](C)c3ccccc3)O[C@H]1CO2
 : 18	18
CC(=O)N1[C@H](CO)[C@@H](c2ccccc2)C12CN(C(=O)c1ccc3c(c1)OCO3)C2
 : -3	-5
CC(C)NC(=O)N(C)C[C@H]1Oc2c(NC(=O)c3cnccn3)cccc2C(=O)N([C@@H](C)CO)C[C@@H]1C
 : 1	-3
Cc1noc(C)c1S(=O)(=O)Nc1cccc2c1O[C@@H](CN(C)C(=O)Nc1ccc3c(c1)OCO3)[C@@H](C)CN([C@H](C)CO)C2=O
 : 0	0
CN1CCN(C(=O)C[C@@H]2CC[C@H](NC(=O)Cc3ccccn3)[C@H](CO)O2)CC1
 : 0	3
CC(C)NC(=O)Nc1ccc2c(c1)C(=O)N([C@@H](C)CO)C[C@H](C)[C@@H](CN(C)Cc1ccncc1)O2
 : 10	12
CO[C@@H]1CN(C)C(=O)c2ccc(NC(=O)C3CCCC3)cc2OC[C@H](C)N(C(=O)CC2CC2)C[C@@H]1C
 : 7	3
CC(C)NC(=O)N(C)C[C@@H]1OCCCC[C@H](C)Oc2ccc(NC(=O)NC3CCCCC3)cc2C(=O)N([C@@H](C)CO)C[C@@H]1C
 : -15	-14
COc1ccc(-c2cnc3c(c2)C(=O)N([C@@H](C)CO)C[C@H](C)[C@H](CN(C)Cc2ccc(C(=O)O)cc2)O3)cc1
 : 16	32
C[C@@H]1CN([C@@H](C)CO)C(=O)c2cccc(NC(=O)c3ccc(-c4nccs4)cc3)c2O[C@H]1CN(C)C(=O)Nc1cccc2ccccc12
 : 24	11
CNC[C@H]1OCCCC[C@H](C)Oc2ccc(NC(=O)Nc3ccc(OC)cc3)cc2C(=O)N([C@H](C)CO)C[C@H]1C
 : 7	10
CC(C)NC(=O)N1CCCCN2[C@@H](CO)[C@H](c3ccc(C#Cc4ccccc4F)cc3)[C@@H]2C1
 : ?	.
C[C@H](NC(=O)[C@H]1[C@H](CO)[C@H]2Cn3c(ccc(-c4ccncc4)c3=O)[C@@H]1N2C)c1ccccc1
 : 2	3
C[C@H](CO)N1C[C@H](C)[C@H](CN(C)Cc2ccc3c(c2)OCO3)OCCCC[C@H](C)Oc2ccc(NC(=O)c3ccncc3)cc2C1=O
 : -3	-8
COc1ccc(NC(=O)Nc2ccc3c(c2)C(=O)N([C@H](C)CO)C[C@@H](C)[C@H](CN(C)S(=O)(=O)c2cn(C)cn2)O3)cc1
 : 30	17
COc1ccc(S(=O)(=O)Nc2ccc3c(c2)C(=O)N([C@H](C)CO)C[C@@H](C)[C@H](CN(C)S(C)(=O)=O)OCCCC[C@@H](C)O3)cc1
 : 5	6
CS(=O)(=O)N1CC2(C1)[C@H](c1ccccc1)[C@@H](CO)N2Cc1ccc(F)cc1
 : 4	-3

High-throughput results as filed in PubChem BioAssay.
